Source: PubChem BioAssay
KCNQ2 block: KCNQ2 channel blockers in CHO-K1 cells – cell-based, FluxOR thallium flux, B-score, primary screen (AID 2156); B-score at 10 µM; 310,000 tested, 1.1% active; 20 min; stronger effect = lower value; only compounds with negative scores are shown here; some inactives read as strong as hits; O88943;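 active means fluorescence ratio B-score at most minus 3 library SDs, with starting brightness B-score within 2 library SDs, cut at about -5.5 in these data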
Target sequence (O88943 whole entry, looked up): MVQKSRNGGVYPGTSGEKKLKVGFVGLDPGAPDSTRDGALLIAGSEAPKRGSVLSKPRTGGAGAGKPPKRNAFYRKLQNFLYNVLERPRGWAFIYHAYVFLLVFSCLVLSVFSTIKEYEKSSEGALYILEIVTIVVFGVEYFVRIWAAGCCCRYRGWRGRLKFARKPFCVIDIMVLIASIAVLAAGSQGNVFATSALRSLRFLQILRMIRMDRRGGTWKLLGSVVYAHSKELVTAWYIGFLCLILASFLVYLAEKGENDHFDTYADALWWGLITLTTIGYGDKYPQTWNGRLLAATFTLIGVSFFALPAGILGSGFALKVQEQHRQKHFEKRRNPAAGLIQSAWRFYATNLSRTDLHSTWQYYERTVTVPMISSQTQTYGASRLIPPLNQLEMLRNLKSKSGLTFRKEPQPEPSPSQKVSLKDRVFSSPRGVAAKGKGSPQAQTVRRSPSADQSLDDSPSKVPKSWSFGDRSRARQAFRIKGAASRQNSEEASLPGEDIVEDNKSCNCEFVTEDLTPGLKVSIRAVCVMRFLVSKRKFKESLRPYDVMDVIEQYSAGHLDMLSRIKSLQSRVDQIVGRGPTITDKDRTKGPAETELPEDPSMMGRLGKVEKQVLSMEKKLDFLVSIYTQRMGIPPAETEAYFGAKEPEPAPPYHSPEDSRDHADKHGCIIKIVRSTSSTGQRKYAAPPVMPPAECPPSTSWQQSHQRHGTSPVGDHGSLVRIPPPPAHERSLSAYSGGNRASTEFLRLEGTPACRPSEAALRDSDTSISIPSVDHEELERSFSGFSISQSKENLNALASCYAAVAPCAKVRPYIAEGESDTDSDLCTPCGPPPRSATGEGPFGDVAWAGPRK
KCNQ2 block baseline: recorded beside KCNQ2 block, whose call it bears; B-score; measured here: initial fluorescence intensity artifact check;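 brightness before thallium and not channel activity; 0 = typical well and far values either way flag optical interference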
* = called active by the depositor; i = inactive.

Molecule,KCNQ2 block,KCNQ2 block baseline
O=C(Nc1ccsc1C(=O)N1CCCC1)c1ccccc1,i,1.66
O=C(C1CCC(CNc2c(N3CCCC3)c(=O)c2=O)CC1)N1CCc2ccccc21 (stereo not given),i,-2.98
CN(C(=O)COC(=O)c1ccc2c(c1)OCO2)C1CCS(=O)(=O)C1 (stereo not given),i,-0.63
COc1ccccc1NC(=O)CN1CCOCC1,i,0.54
O=C(Nc1ccc(Oc2c(F)c(F)c(F)c(F)c2F)cc1)OC1CCN2Cc3ccccc3N=C12 (stereo not given),i,-0.02
CC(=O)C1=C(c2ccccc2)NC(=S)NC1c1cc(Cl)c(OC(C)C)c(Cl)c1 (stereo not given),i,1.57
O=c1c2cn[nH]c2nc(SCc2cc(=O)n3cc(Br)ccc3n2)n1-c1ccc(Br)cc1,i,2.27
CCOC(=O)C1CCN(C(=O)Cn2cc(C(=O)c3ccco3)c3ccccc32)CC1,i,2.02

In the list so far, these contain sulfur:
Molecule,KCNQ2 block,KCNQ2 block baseline
O=C(Nc1ccsc1C(=O)N1CCCC1)c1ccccc1,i,1.66
CN(C(=O)COC(=O)c1ccc2c(c1)OCO2)C1CCS(=O)(=O)C1 (stereo not given),i,-0.63
CC(=O)C1=C(c2ccccc2)NC(=S)NC1c1cc(Cl)c(OC(C)C)c(Cl)c1 (stereo not given),i,1.57
O=c1c2cn[nH]c2nc(SCc2cc(=O)n3cc(Br)ccc3n2)n1-c1ccc(Br)cc1,i,2.27

Later entries
Molecule,KCNQ2 block,KCNQ2 block baseline
Cc1ccc(OCC(=O)N/N=C\c2cn(C)c3ccccc23)c([N+](=O)[O-])c1,i,0.49
COc1cccc(COC(=O)C2CCN(S(=O)(=O)c3ccc(C)cc3C)CC2)c1OC,i,0.83
O=C(CNC(=O)c1ccc(Cl)cc1Cl)OCc1nnc(-c2ccccc2)o1,i,0.01
CNC(=O)c1cc(S(=O)(=O)Nc2ccc3c(c2)OCCO3)ccc1C,i,-0.02
O=C(CSc1ccc2c(c1)OCCO2)NCC1CCCO1 (stereo not given),i,0.66
CCc1ccccc1OCC(=O)NC1CCCC1,i,-1.55
O=C1c2cccc3cccc(c23)C(=O)N1c1ccc(O)cc1,i,1.07
Cc1cc(C)n(-c2nc(NCCC(C)C)c3c4c(sc3n2)COC(C)(C)C4)n1,i,1.51

Additional results follow.
Molecule,KCNQ2 block,KCNQ2 block baseline
Cc1occc1C(=O)NNC(=S)Nc1ccccc1,i,-0.02
CCc1nc2ccccc2c(C(=O)OC2CCOC2=O)c1C (stereo not given),i,0.03
Nc1c(C(=O)c2ccc(Cl)cc2)sc2c1c(=O)[nH]c(=O)n2-c1ccccc1,i,-0.09
CCOC(=O)C1=C(C)OC(N)=C(C#N)C1c1c(C)nn(-c2ccccc2)c1Cl (stereo not given),i,0.04
O=C(COc1ccccc1)NS(=O)(=O)c1ccccc1,i,0.99
CN(CC(=O)NCc1ccco1)S(=O)(=O)c1ccc(F)cc1,i,0.29
COc1ccc(CNC(=O)CN(C(=O)CCC(=O)Nc2ccccn2)c2ccc3c(c2)OCO3)cc1,i,1.61
O=C(Nc1ccc(N2CCOCC2)cc1)C1CC(=O)N(c2ccc(F)cc2)C1 (stereo not given),i,0.12

One compound at a time, as listed above. Order of values: KCNQ2 block, KCNQ2 block baseline
`CCc1nc2ccccc2c(C(=O)OC2CCOC2=O)c1C` (stereo not given) is listed as i, 0.03
`O=C(Nc1ccc(N2CCOCC2)cc1)C1CC(=O)N(c2ccc(F)cc2)C1` (stereo not given) is listed as i, 0.12

(cont.)
Molecule,KCNQ2 block,KCNQ2 block baseline
O=C(c1ccc(S(=O)(=O)N2CCCC2)cc1)N1CCN(c2ccccc2F)CC1,i,-1.78
N#Cc1ccc(NC(=O)Cn2cnc(S(=O)(=O)N3CCCCC3)c2)cc1,i,0.19
COc1cc2c(cc1NC(=O)CN(C)Cc1nc3ccccc3c(=O)[nH]1)oc1ccccc12,i,0.08
COc1ccc(CCNS(=O)(=O)c2cccc([N+](=O)[O-])c2)cc1,i,1.81
Cc1ccccc1NC(=O)NCCCN1CCN(C)CC1,i,1.12
Cc1occc1C(=O)N1CCN(c2ccccc2)CC1,i,1.31
CC(NC(=O)C1CCCCC1)C(c1cccs1)N1CCN(C)CC1 (stereo not given),i,-0.07
Cc1ccc(CN2C(=O)CSc3ccc(C(=O)NCCN4CCOCC4)cc32)cc1,i,0.32

Next section.
Molecule,KCNQ2 block,KCNQ2 block baseline
Cc1ccc2nc(SCC(=O)NCc3ccccc3Cl)nc(=O)n2c1,i,-1.06
Cc1ccc(N(C(=O)C2CCCC2)C2C=CS(=O)(=O)C2)cc1 (stereo not given),i,1.67
CC(C)(C)c1ccc(Cn2nnc3c(=O)[nH]c(C4CCCN(C(=O)c5ccco5)C4)nc32)cc1 (stereo not given),i,-1.19
CCOC(=O)C(C(=O)OCC)N(C#N)c1nc(N(C)C)nc(N(C)C)n1,i,0.68
CCn1c(CNc2ccc(Cl)cc2)nnc1SCc1ccccc1,i,-0.5
Oc1ccc(Br)cc1C=Nc1ccc2c3c(cccc13)CC2,i,-0.3
O=C(CN(Cc1ccccc1)S(=O)(=O)c1cccc(C(F)(F)F)c1)NC1CCCCC1,i,-0.28
O=C(CC1C(=O)NCCN1Cc1cccc(Oc2ccccc2)c1)NCCc1cscn1 (stereo not given),i,0.81

The list goes on; it opens with the two that closed the last part.
Molecule,KCNQ2 block,KCNQ2 block baseline
O=C(CN(Cc1ccccc1)S(=O)(=O)c1cccc(C(F)(F)F)c1)NC1CCCCC1,i,-0.28
O=C(CC1C(=O)NCCN1Cc1cccc(Oc2ccccc2)c1)NCCc1cscn1 (stereo not given),i,0.81
Cc1ccc(NC(=O)c2ccccc2F)c(NC(=O)c2ccccc2F)c1,i,-0.11
CCOC(=O)c1sc(-c2ccccc2)cc1NC(=O)Nc1ccccc1,i,-2.34
O=C(C1CCCN(S(=O)(=O)c2cccc3nsnc23)C1)N1CCCCCC1 (stereo not given),i,1.32
CCN(CC)c1ccc(NC(=O)CN2CCN(S(=O)(=O)c3cc(Cl)ccc3OC)CC2)cc1,i,2.44
Cc1ccc([N+](=O)[O-])c2c1C(N1CCCCC1)C(C)(C)O2 (stereo not given),i,0.03
COc1ccc(OCC(=O)NC(=S)Nc2ccc(S(=O)(=O)Nc3cc(C)on3)cc2)cc1,i,-0.64
CN(C(=O)COC(=O)c1cnc(Cl)c(Cl)c1)C1CCS(=O)(=O)C1 (stereo not given),i,0.45
Cc1c(N=C2NC(=O)/C(=C/c3ccc(O)cc3)S2)c(=O)n(-c2ccccc2)n1C,i,1.37

Following part.
Molecule,KCNQ2 block,KCNQ2 block baseline
COc1cccc(CN2CCN(C(=O)c3cc(-c4ccccn4)nc4ccc(Cl)cc34)CC2)c1,i,-0.34
O=C(COC(=O)CNS(=O)(=O)/C=C/c1ccccc1)Nc1cc(S(=O)(=O)N2CCCCC2)ccc1Cl,i,2.72
COc1cccc(NC(=O)CSc2ncnc3c2cnn3Cc2ccccc2)c1,i,-1.16
COC(=O)c1ccncc1C(=O)Nc1ccc(OC)cc1,i,0.16
CNC(=S)NNC(=O)c1sccc1C,i,1.03
CCOC(=O)C1=C(CSc2nncn2C)NC(=O)NC1c1cc(OCC)ccc1OCC (stereo not given),i,-0.76
CN1C(C(=O)NCc2ccccc2)CC2Cn3c(nc4cc5ccccc5cc43)C21 (stereo not given),i,2.69
CC(C(=O)Nc1ccc(C#N)cc1)N(C)CC(=O)Nc1ccccc1Br (stereo not given),i,1.12

(continued)
Molecule,KCNQ2 block,KCNQ2 block baseline
Cc1cccc(NC2SC(=O)NC2=O)c1 (stereo not given),i,0.07
CN(CCc1cn[nH]c1)C(=O)CC1C(=O)NCCN1Cc1ccccc1C(F)(F)F (stereo not given),i,-0.05
COc1ccc(CN2CC(=O)N(c3cccc(Cl)c3)C2=S)cc1OC,i,-1.91
Nc1nc(SCc2ccc(Cl)cc2Cl)ns1,i,1.5
Cc1cc(C)n2c(SCc3cccs3)nnc2n1,i,0.24
COC(=O)c1[nH]c2cc(C)ccc2c1NC(=O)CN1CCOCC1,i,-0.66
COc1ccc(N/N=C(C)/C(=N/O)C(=O)Nc2ccccc2)cc1,i,3.63
Clc1ccccc1OCCN1CCC(Cc2ccccc2)CC1,i,1.61

(continued)
mol,KCNQ2 block,KCNQ2 block baseline
CCOC(=O)c1cc(=O)c2ccc(OCC(=O)Nc3ccccc3)cc2o1,i,-0.12
COc1ccc(Br)cc1/C=c1\sc2nc(-c3ccco3)nn2c1=O,i,0.87
COc1ccc(-c2nc(CS(=O)CC(=O)NC3CCCCC3)c(C)o2)cc1 (stereo not given),i,-1.03
Cc1cccc(C(=O)NNC(=O)CCn2nnc3ccccc32)c1,i,1
COc1ccc(CCNC(=O)Cn2nnc3ccccc3c2=O)cc1,i,1.2
FC(F)(F)c1nnc(-c2ccccc2)nc1Sc1ccc(Cl)cc1,i,-1.12
O=C(CSCC(=O)NCc1ccco1)NCc1ccco1,i,-1.34
NS(=O)(=O)c1cc(C(=O)N2CCNC(=O)C2)ccc1Cl,i,-0.92
COCCNC(=O)Cc1ccc(F)cc1,i,-0.06
CCn1cnc2c(cnn2-c2ccccc2)c1=O,i,0.33
COc1cccc(-n2cnc(=O)c3cccnc32)c1,i,-4.11
COc1ccc2[nH]c(=O)c(C(c3nnnn3C3CCCCC3)N3CCN(C)CC3)cc2c1 (stereo not given),i,0.86
O=C(COC(=O)c1cccc(Br)c1)NCCc1ccccc1,-5.66*,0.44*
N#CC1=C(N)NC(SCC(=O)c2ccccc2)=C(C#N)C12CCCC2,i,-1.79
Cc1ccc(C(=O)Nc2ccc(Br)cc2)cc1S(=O)(=O)Nc1ccccn1,i,0.2
CCCCCc1cc(=O)oc2c(C(CCN3CCCC(C)C3)c3cc(OC)c(OC)c(OC)c3)c(OC)cc(OC)c12 (stereo not given),i,0.49
COc1ccc([N+](=O)[O-])cc1NC1CCCCC1,i,1.08
CC1=C(C(=O)OCc2ccccc2)C(c2ccc(C(C)(C)C)cc2)NC(=O)N1CCCCCC(=O)O (stereo not given),i,-2.53
O=C(Nc1ccc(N2CCCC2)cc1)c1cccc(Cl)c1,i,0.55
NCCNc1ccc(C(=O)N2c3ccccc3Sc3ccccc32)cc1[N+](=O)[O-],-8.07*,1.06*
O=C(NC1CCCC1)c1cc(-c2ccc(F)cc2)on1,i,0.21
COc1ccc(CCC(=O)NNC(=O)Nc2ccc(C(C)C)cc2)cc1,i,-0.04
O=C1/C(=C\c2ccc3ccccc3c2)CCCc2ccccc21,-6.51*,-0.77*
CCOc1ccc2nc(NC(=O)C3CCN(S(=O)(=O)c4cnc[nH]4)CC3)sc2c1,i,-0.19
C[C@]12CC[C@@H]3c4ccc(O)cc4[C@@H](O)C[C@H]3[C@@H]1CC[C@@H]2O,i,-0.3

(next part)
mol,KCNQ2 block,KCNQ2 block baseline
CCCc1[nH]nc2c1C(c1ccc(OC)c(Cn3nc(C)c(Br)c3C)c1)C(C#N)=C(N)O2 (stereo not given),i,-0.16
CC(OC(=O)CCc1nc2ccccc2[nH]c1=O)C(=O)c1ccccc1 (stereo not given),i,0.34
CC(NS(=O)(=O)/C=C/c1ccccc1)c1ccccc1 (stereo not given),i,1.95
O=C1CC(c2ccccc2)Sc2nc(-c3ccccc3)c(-c3ccccc3)n21 (stereo not given),i,-0.13
CCOC(=O)CC(=O)CSc1nc2c(sc(=S)n2-c2ccc(OCC)cc2)c(=O)[nH]1,i,-0.67
CCCC(=O)Nc1sc2c(c1C#N)CCCC2,i,-0.06
Cc1ccc(S(=O)(=O)N(Cc2ccccc2)c2ccccc2C(=O)NCc2ccco2)cc1,i,0.54
Cc1snc(S(=O)(=O)/C(C#N)=N\Nc2ccccc2)c1C#N,i,-1.49
NC(=O)C1CCN(c2cc(Cl)ccc2[N+](=O)[O-])CC1,i,0.01
C=CCNC(=O)COC(=O)CNC(=O)c1cc(Cl)cc([N+](=O)[O-])c1,i,0.83
O=C(CCl)N1N=C(c2cccs2)CC1c1ccco1 (stereo not given),i,-3.38
O=C(Nc1ccccc1)C1CCN(C(=O)c2ccc([N+](=O)[O-])cc2)CC1,i,0.58
CN(C)S(=O)(=O)c1ccc(NC(=O)COC(=O)C2CC3CCCC(C2)C3=O)cc1 (stereo not given),i,1.28
CC1=NN(c2ccccc2)C(=O)/C1=C/c1cc(C)n(C2CC2)c1C,i,-1.04
COC(=O)c1c(NC(=O)COC(=O)CCS(=O)(=O)c2ccc(C)cc2)sc(C)c1C,i,-0.6
Cc1ccc(S(=O)(=O)Nc2cccc(CP(=O)(c3ccccc3)c3ccccc3)c2)cc1,i,0.55
CCCc1cc(=O)[nH]c(SCC(=O)Nc2ccc(OC(F)F)cc2)n1,i,1.4
CCN(CC)c1ccc(NC(=O)c2cccc(C)c2OC)c(C)c1,i,-0.35
Cc1[nH]c2ccccc2c1C(C#N)(C#N)C1C(=O)c2ccccc2C1=O,i,-1.34
CN(C)S(=O)(=O)c1cccc(NC(=O)c2cc(=O)[nH]c(=O)[nH]2)c1,i,1.68
COc1ccccc1OCC(=O)NC1CCCCCC1,i,0.58
O=S(=O)(c1ccc2ncn(O)c2c1)N1CCOCC1,i,-0.34
Cc1nc(NC(=O)c2ccc(Cl)cc2)sc1Cc1ccc2c(c1)OCO2,i,-0.06
CN(C(=O)COC(=O)c1cccc(S(=O)(=O)N2CCCCC2)c1)C1CCS(=O)(=O)C1 (stereo not given),i,-1.01
CN1CCN(C(=O)CSc2nc3c(c(=O)n(C)c(=O)n3C)n2C)CC1,i,-1.09
CC(C)CCNC(=O)C1CCC(CNc2c(N3CCCC3)c(=O)c2=O)CC1 (stereo not given),i,-0.07
Cc1c(NS(=O)(=O)c2cc(C(=O)NCc3cccnc3)cc(Cl)c2Cl)c(=O)n(-c2ccccc2)n1C,i,0.51
CCC(=O)Nc1ccc(/C(C)=N/NC(=O)c2c(Br)c(C)nn2C)cc1,i,0.24

Some of the compounds tested; count on the stated rates, not on these rows.
